Compound activity as filed in PubChem BioAssay.
ALR H2O2 inh = inhibitors of human ALR sulfhydryl oxidase, primary screen, biochemical, H2O2 detection, HRP-luminol luminescence, single point | FAD-linked sulfhydryl oxidase ALR (Homo sapiens), P55789 | purified ALR, DTT oxidation | inhibition, % (no concentration beside the values) | hit rate 3.8% among 290,000;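 active = mean and each replicate at 75% or more; inconclusive = only one of the two met; inactive = neither met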;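 note: stock transfer was 7.5 nL into about 7.5 µL; 0% = neutral wells and 100% = wells with inactivated enzyme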
Target sequence (P55789 whole entry, looked up): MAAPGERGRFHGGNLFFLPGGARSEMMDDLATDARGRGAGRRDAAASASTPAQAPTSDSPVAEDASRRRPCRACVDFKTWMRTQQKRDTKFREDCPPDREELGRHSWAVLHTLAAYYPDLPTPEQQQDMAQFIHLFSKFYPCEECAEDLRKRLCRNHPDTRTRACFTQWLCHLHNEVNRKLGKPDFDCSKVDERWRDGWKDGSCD
HNF4A DNA FP = change in binding of human HNF4A to DNA, primary screen, biochemical, fluorescence polarization, FITC-DNA | Hepatocyte nuclear factor 4-alpha (Homo sapiens), P41235 | 1 h | activity change, % at 10 µM | hit rate 0.3% among 360,000 | AID 1224865, 2016; in the data active = activity change above about 30%, passing the limit was not always enough;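 note: controls were the assay level and a saturating level of protein; the project sought stronger binding though the title names inhibitors; some compounds called inactive have numbers as strong as hits; positive values seem to mean higher polarization but the record does not say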
Target sequence (P41235 whole entry, looked up): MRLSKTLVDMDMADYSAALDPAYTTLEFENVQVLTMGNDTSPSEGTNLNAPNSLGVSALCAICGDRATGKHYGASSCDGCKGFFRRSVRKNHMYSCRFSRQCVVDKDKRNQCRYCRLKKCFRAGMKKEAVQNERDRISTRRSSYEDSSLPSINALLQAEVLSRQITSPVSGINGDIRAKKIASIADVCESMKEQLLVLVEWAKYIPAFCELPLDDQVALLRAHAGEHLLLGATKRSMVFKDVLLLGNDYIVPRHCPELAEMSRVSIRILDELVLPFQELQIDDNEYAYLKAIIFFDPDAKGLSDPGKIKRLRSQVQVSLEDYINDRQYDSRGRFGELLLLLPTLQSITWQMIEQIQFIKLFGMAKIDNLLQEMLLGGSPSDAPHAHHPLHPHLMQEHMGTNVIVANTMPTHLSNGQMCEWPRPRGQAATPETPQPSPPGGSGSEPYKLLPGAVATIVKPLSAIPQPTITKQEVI
rRNA inh HTS = reduced GFP signal of wild-type E. coli, primary screen, bacterial rRNA inhibitor project, GFP/RFP fluorescence, OD600, single point. E. coli WT GFP vs humanized-ribosome RFP mutants, 24 h; stronger effect = lower value; DMSO median 0, no signal -100. GFP signal change (wild-type ribosome), % (concentration not given with the values). hit rate 1.6% among 350,000. AID 720706, 2013;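 active = significant combined selectivity score with lowered wild-type GFP, culture density cut under 30%, mutant RFP and density less affected; inactive = any of these conditions unmet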; note: one replicate is shown; some compounds called inactive have numbers as strong as hits
Vif A3G = inhibitors of Vif binding to APOBEC3G peptide, primary screen, biochemical, TR-FRET, GST-Vif 1-94, biotin-A3G peptide, dose response retest (AID 1117319). Virion infectivity factor (Human immunodeficiency virus type 1 group M subtype B (isolate …. TR-FRET GST-Vif / biotin-A3G peptide binding; higher % means a stronger effect; test concentration not given here; strong numbers were not always called active. inhibition, %, or IC50 in µM where a hit was titrated. hit rate 0.57% among 260,000;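 active = above the screen mean plus three standard deviations and confirmed in dose response; inconclusive = results disagree or hit not tested in dose response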;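 note: Vif residues 1-94 fused to GST binding biotinylated APOBEC3G peptide 110-148; 0% = full assay without inhibitor and 100% = GST in place of GST-Vif; retest series ran down from 100 µM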
Ecoli growth = E. coli growth inhibition, primary screen, OD600; Escherichia coli growth, 23 h; stronger effect = lower value; hit rate 0.21% among 330,000; AID 1053175, 2014; OD600 absorbance (test concentration not listed);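 active = OD600 absorbance below the run mean of sample wells minus 3.6 SD, in any replicate, cut at about 0.56 in these data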;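 note: stock transfer was 300 nL into about 60 µL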
AF4-AF9 inh = inhibitors of AF4 peptide binding to AF9, primary screen, biochemical, AlphaScreen, biotin-AF4 peptide, FLAG-AF9, single point; AID 651704, 2012; inhibition, % at 10 µM; Protein AF-9 (Homo sapiens), P42568; hit rate 0.47% among 350,000;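 active = every replicate reaching a set inhibition limit, whatever the replicate mean, cut at about 25% in these data; inconclusive = mean inhibition reaches that limit but some replicates miss it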;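 note: 0% = plate neutral control median and 100% = total signal loss; the record names both 10 and 1 µM as test concentration; the first replicate is given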
FGF22 binding = binders of human FGF22 protein, primary screen, FGF22 synaptogenesis inhibitor project, biophysical, thermal shift, single point | recombinant FGF22 thermal shift, SYPRO orange fluorescence; percent of sucrose octasulfate shift, DMSO zero | calls only at 9.99 µM | hit rate 1.5% among 340,000 | AID 651658, 2012;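 active = melting point raised past a set limit in the mean and every replicate; inconclusive = no clear call; three in four hits are not shown here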
Target sequence (Q9HCT0 whole entry, looked up): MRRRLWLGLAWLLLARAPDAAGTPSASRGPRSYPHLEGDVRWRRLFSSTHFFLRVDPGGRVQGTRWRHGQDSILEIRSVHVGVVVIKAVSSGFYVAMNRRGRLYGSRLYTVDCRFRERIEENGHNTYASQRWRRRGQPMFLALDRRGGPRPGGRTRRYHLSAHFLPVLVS
rRNA inh HTS OD600 = further read-out of rRNA inh HTS, marked with its call; OD600 change, %; measured here: OD600 growth;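 optical density of the mix in the first replicate; 0 = DMSO median and -100 = no signal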
rRNA inh HTS RFP = second read-out of rRNA inh HTS, no call of its own (marks repeat the call); RFP signal change, %; measured here: RFP humanized mutant strains;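 first replicate; 0 = DMSO median and -100 = no signal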
* marks the source's active call; other numbers are inactive results; i = inactive; ? = inconclusive; nt = not tested or not shown; + = active, no number.

Second line of a record: ALR H2O2 inh, HNF4A DNA FP, rRNA inh HTS, rRNA inh HTS OD600, rRNA inh HTS RFP, Vif A3G, Ecoli growth, AF4-AF9 inh, FGF22 binding
O=C(NCC1CCCO1)c1cccc(NS(=O)(=O)c2ccc(Br)cc2)c1 (configuration not stated)
  -34.6, 0.5, -5.6, -6.4, -0.8, 1.8%, 0.635, -23.8, i
O=C(CCN1CCCCC1)N1CCc2c([nH]c3ccccc23)C1c1cccnc1 (configuration not stated)
  nt, -1.5, 29.1, 13.9, 9.9, -4.1%, nt, 1.5, i
O=c1c(-c2ccc(Cl)cc2)[n+]([O-])c2ccccc2n1OCc1ccccn1
  -5.2, 0.0, nt, nt, nt, 1.6%, 0.714, nt, nt
CC[n+]1cc(C)ccc1/C=C/c1ccc(N(C)C)cc1
  99.4*, 76.1*, 26.6, -39.0, 30.6, nt, 0.605, ?, i
CN(C)C(=S)N=c1ssc(=S)n1Cc1ccccc1
  nt, 1.4, -58.2, -77.7, -20.6, nt, nt, -5.5, i
O=C(c1ccc(Cl)c(S(=O)(=O)NCc2ccco2)c1)N1CCN(c2ccc(F)cc2)CC1
  -6.1, -0.7, nt, nt, nt, 0.8%, 0.686, nt, nt
O=C1CC(N2CCN(S(=O)(=O)c3ccccc3F)CC2)C(=O)N1c1ccc(F)cc1F (configuration not stated)
  6.1, -0.6, 3.1, 3.7, 1.9, -1.3%, 0.689, -0.6, i
Cc1cc(C)c(NC(=O)NC2CCCCC2)c(C)c1
  -10.6, 2.2, nt, nt, nt, 0.6%, 0.691, nt, nt
C=CCn1c(-c2ccc3ncccc3c2)n[nH]c1=S
  29.9, -1.3, 13.5, 9.2, -1.2, nt, 0.621, -2.3, i
CCCNC(=O)N[C@@H]1C=C[C@@H](CC(=O)N2CCN(C)CC2)O[C@H]1CO
  nt, nt, 0.3, 6.3, -0.9, nt, nt, -0.4, i
N#Cc1cn(OCc2ccccc2)c(=O)[nH]c1=O
  -1.2, -1.1, nt, nt, nt, -5.0%, 0.708, nt, nt
CC(NCc1ccc(F)cc1)C(=O)Nc1cc(S(=O)(=O)N2CCCCC2)ccc1Cl (configuration not stated)
  -6.5, 7.7, -2.0, 0.0, 6.4, 15.8%, nt, -0.9, nt
C=C1CCC2C(C)(C)[C@H](O)CC[C@@]2(C)[C@@H]1COc1cc(=O)oc2ccccc12 (some centres not stated)
  34.6, -3.7, nt, nt, nt, ?, nt, nt, nt
O=C(CCCN1C(=O)C2CC=CCC2C1=O)Nc1ccccc1Cl (configuration not stated)
  0.0, -2.5, -3.7, -0.4, 0.5, nt, 0.724, -1.1, i
Cc1cc2c(cc1S(=O)(=O)Nc1ccc(OC(F)(F)F)cc1)OCC(=O)N2
  -17.1, -2.6, -37.3, -70.9, -7.7, nt, 0.667, 1.8, i
CC(=O)N(C)C[C@H]1Oc2ncc(-c3ccccc3C)cc2C(=O)N([C@@H](C)CO)C[C@H]1C
  nt, nt, -0.9, 7.6, -1.4, nt, nt, -2.5, i
O=C(NCCCCc1ccccc1)Nc1cccc(F)c1
  -0.4, -3.8, -55.0, -72.5, -21.0, nt, 0.652, -2.7, i
O=c1c2[nH]c3ccc(F)cc3c2ncn1CCN1CCOCC1
  -4.2, 4.2, nt, nt, nt, 13.4%, 0.663, nt, nt
Cc1c(C(=O)N2CCC(C)(C(=O)NS(=O)(=O)C3CC3)C2)oc2ccccc12 (configuration not stated)
  nt, -2.1, -0.9, -2.6, 2.4, nt, nt, -1.4, i
CCC(C)NCC(=O)Nc1ccc([N+](=O)[O-])cc1C(=O)Nc1ccccc1F (configuration not stated)
  nt, 0.6, 5.5, 5.7, -0.7, 4.6%, 0.69, 0.2, i
O=C(Nc1nc2ccsc2c(=O)s1)c1ccc(F)cc1Cl
  3.2, -2.2, nt, nt, nt, nt, 0.648, -0.6, i
COC(=O)c1ccc(C2/C(=C(\O)c3ccc4c(c3)OCCO4)C(=O)C(=O)N2c2nnc(C)s2)cc1 (configuration not stated)
  14.8, 0.9, -7.6, 2.4, 4.9, nt, 0.707, 1.2, i
Cc1ccc(NC(=O)CSc2nc(C)c(C)c(C)n2)c([N+](=O)[O-])c1
  nt, -1.8, nt, nt, nt, -0.8%, 0.686, nt, nt
CC=Cc1ccc2n(c1=O)C[C@H]1[C@H](CO)[C@@H](C(=O)NCC3CC3)[C@@H]2N1S(=O)(=O)c1cn(C)cn1 (mixture of isomers)
  nt, nt, 1.7, 0.6, -0.1, nt, nt, -2.1, i
COc1ccc(N2CC(C(=O)Nc3nnc(SCC(=O)NC(C)(C)C)s3)CC2=O)cc1 (configuration not stated)
  2.6, -3.8, 4.7, -1.5, -3.7, 14.8%, 0.68, 2.5, i
CCOC(=O)Cc1ccc(Nc2nc(NCCOC)nc3ccsc23)cc1
  nt, -0.7, 15.7, -18.3, 3.4, nt, nt, 4.7, i
CCC(C(=O)Nc1cc(C)on1)c1ccccc1 (configuration not stated)
  -3.4, -4.0, nt, nt, nt, 2.2%, 0.759, nt, nt
CCOC(=O)[C@]12CCC=C1N(Cc1ccc(Cl)cc1Cl)C(=O)[C@H](CC(=O)NCc1ccc(C)o1)C2
  nt, -2.0, -6.9, -4.8, 9.5, nt, nt, -2.2, i
Cc1c(N=Cc2ccc(Cl)o2)c(=O)n(-c2ccccc2)n1C
  5.0, -2.5, 5.5, 7.3, -2.0, ?, 0.675, 7.4, i
CC(C)(C)C1CCN2CCC[C@](c3ccccc3)(C1)[C@@]21CO1 (some centres not stated)
  nt, -0.7, nt, nt, nt, nt, nt, -1.3, i
Cc1ccsc1C(=O)OCC(=O)N1CCN(c2ccccc2)CC1
  ?, 1.3, -1.2, -0.8, 2.3, 5.1%, 0.662, -2.8, i
O=C(COc1ccc(Cl)cc1)NCCSc1ccccc1
  -0.5, 6.5, nt, nt, nt, 18.4%, 0.778, nt, nt
COc1ccc(-c2csc(NC3OC(=O)c4c3ccc(OC)c4OC)n2)cc1OC (configuration not stated)
  7.7, 2.7, nt, nt, nt, nt, 0.669, 1.2, i
CCCN1CCN(C(=O)CN2C(=O)CC(C)(C)S(=O)(=O)c3ccccc32)CC1
  -0.2, -2.7, nt, nt, nt, -3.4%, 0.695, nt, nt
Cc1cc(C(=O)C(C)Cl)c(C)n1Cc1ccco1 (configuration not stated)
  20.4, -14.7, 14.1, 15.3, 0.5, 7.2%, 0.669, -2.4, i
N#CC[n+]1cc(-c2ccc(Cl)cc2)n2c1CCC2
  -3.5, 1.4, nt, nt, nt, 3.9%, 0.706, nt, nt
Nc1ccc(S(=O)(=O)Nc2nccc(/C=C/c3ccc(Cl)cc3Cl)n2)cc1
  0.9, 0.5, 10.3, -0.2, -0.5, -10.2%, 0.682, 0.8, i
COc1ccc(Cc2nnc(NC(=O)C3CCCO3)s2)cc1OC (configuration not stated)
  -1.2, 1.9, nt, nt, nt, 7.5%, 0.694, nt, nt
N#C/C(=N\Nc1ccccc1)C(=N)N1CCCCCC1
  3.8, -8.9, 10.3, 15.1, 1.9, nt, nt, nt, i
O=C(Oc1cc(Cl)ccc1Cl)C1=CC=CN2CCS(=O)(=O)N=C12
  8.0, -2.7, 14.9, 16.1, 2.4, 0.1%, 0.59, -4.4, +
O=C1CN(C(=O)COC(=O)CCCOc2ccccc2)c2ccccc2N1
  -5.8, 1.5, 12.3, -0.7, 1.5, 24.5%, 0.706, -0.9, i
COc1cccc(/C=C/C(=O)OCC(=O)NCc2ccco2)c1
  -1.5, -7.9, nt, nt, nt, 23.9%, 0.676, nt, nt
CC1(C(=O)Nc2cccc(OC(F)(F)F)c2)Cc2c(-c3cccc(C(N)=O)c3)ccnc2O1 (configuration not stated)
  nt, 0.7, -30.4, -37.4, -8.5, nt, nt, -2.1, i
Cc1ccccc1OCc1ccc(C(=O)N2CCOCC2)o1
  1.6, 0.2, -2.8, -8.0, -0.2, -2.8%, 0.643, -0.4, i
COc1ccc(-c2nc3ccccc3n(CC(C)C)c2=O)cc1
  nt, 1.9, -27.5, -24.4, -0.9, nt, nt, -0.2, i
O=C(c1ccccc1F)N1CCCC(C(=O)N2CCN(c3ccccc3)CC2)C1 (configuration not stated)
  46.4, 4.6, 2.0, -3.8, 2.2, 23.7%, 0.657, -3.7, i
Cc1cccc(S(=O)(=O)N2CCCCN3[C@H](C2)[C@@H](c2ccc(C#C[C@H](C)O)cc2)[C@@H]3CO)c1
  nt, nt, -4.0, -7.0, 6.5, nt, nt, -0.1, i
CCOC(=O)C(C)Sc1ncnc2nc[nH]c12 (configuration not stated)
  -4.7, 2.0, nt, nt, nt, -0.4%, 0.673, nt, nt
CCOC(=O)N1CCN(C(=O)C(=O)NNC(=O)COc2ccc(Cl)c(C)c2)CC1
  1.2, 6.2, nt, nt, nt, nt, 0.707, nt, nt
C[C@H](CO)N1C[C@H](C)[C@@H](CN(C)S(=O)(=O)c2cn(C)cn2)Oc2cc(C3=CCCCC3)ccc2S1(=O)=O
  nt, nt, -3.0, -15.9, 1.5, nt, nt, 2.7, i
C[C@@H]1CN([C@@H](C)CO)C(=O)c2cc(C3=CCCCC3)cnc2O[C@@H]1CN(C)C(=O)c1cccnc1
  nt, nt, 3.5, 13.6, -3.1, nt, nt, -5.5, i
CCOC(=O)Cc1csc(NC(=O)c2cccc(N3C(=O)CCC3=O)c2)n1
  -3.4, 1.6, nt, nt, nt, -4.8%, 0.643, nt, nt
COc1ccccc1N1C(=O)c2ccc(C(=O)Nc3ccc(F)cc3)cc2C1=O
  -6.8, -1.3, 3.7, 5.1, 1.0, nt, 0.659, 0.5, i
O=C(OCCCN=C1NS(=O)(=O)c2ccccc21)c1ccccc1F
  -4.1, -1.9, nt, nt, nt, -0.2%, 0.667, nt, nt
C[C@@H]1CN([C@@H](C)CO)C(=O)c2cc(NC(=O)Nc3ccccc3)ccc2O[C@@H]1CN(C)Cc1ccc2c(c1)OCO2
  nt, nt, -8.4, -4.3, -1.4, nt, nt, 9.8, i
CCCOc1ccc2oc(=O)c3c(c2c1)CCCN3C(=O)CN1CCc2ccccc2C1
  1.3, -1.0, nt, nt, nt, 72.2%, 0.76, nt, nt

This is a subset; count on the stated rates, not on these rows.
